HNF4A DNA FP: change in binding of human HNF4 alpha to DNA; HNF4a-FITC DNA binding, fluorescence polarization, 1 h; 0.3% of 360,000 active; activity change, % at 10 µM; AID 1224865; P41235; in the data active means activity change above about 30%, passing the limit was not always enough;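 further: controls were the assay level and a saturating level of protein; the project sought stronger binding though the title names inhibitors; some compounds called inactive have numbers as strong as hits; positive values seem to mean higher polarization but the record does not say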
Target sequence (P41235 whole entry, looked up): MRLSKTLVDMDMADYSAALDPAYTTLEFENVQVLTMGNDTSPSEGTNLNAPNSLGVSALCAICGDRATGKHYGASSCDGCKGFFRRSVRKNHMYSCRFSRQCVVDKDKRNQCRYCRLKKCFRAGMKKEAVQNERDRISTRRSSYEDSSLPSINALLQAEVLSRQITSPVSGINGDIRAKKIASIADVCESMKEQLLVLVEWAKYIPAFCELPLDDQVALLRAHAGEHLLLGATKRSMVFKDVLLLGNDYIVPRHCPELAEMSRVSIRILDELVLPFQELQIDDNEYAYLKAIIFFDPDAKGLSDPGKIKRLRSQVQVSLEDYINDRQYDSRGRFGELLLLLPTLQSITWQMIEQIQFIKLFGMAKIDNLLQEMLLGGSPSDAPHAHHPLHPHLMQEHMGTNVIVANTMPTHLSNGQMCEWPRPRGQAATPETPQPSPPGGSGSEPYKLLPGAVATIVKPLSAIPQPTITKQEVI
Vif TR-FRET: HIV-1 Vif–A3G interaction blockers – biochemical, TR-FRET, GST-Vif 1-94, biotin-A3G peptide, dose response retest, primary screen (AID 1117319) | inhibition, %; hits with a dose series show IC50 in µM | TR-FRET GST-Vif / biotin-A3G peptide binding; higher % means a stronger effect; test concentration not given here; strong numbers were not always called active | 0.57% of 260,000 active;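 active means above the screen mean plus three standard deviations and confirmed in dose response; inconclusive means results disagree or hit not tested in dose response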;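 further: Vif residues 1-94 fused to GST binding biotinylated APOBEC3G peptide 110-148; 0% = full assay without inhibitor and 100% = GST in place of GST-Vif; retest series ran down from 100 µM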
MLL AF4-AF9 inh: blocks AF4 peptide binding to human AF9; P42568; AlphaScreen, biotin-AF4 peptide binding to FLAG-AF9; inhibition, % at 10 µM; 0.47% of 350,000 active; AID 651704;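 active means every replicate reaching a set inhibition limit, whatever the replicate mean, cut at about 25% in these data; inconclusive means mean inhibition reaches that limit but some replicates miss it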;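 further: 0% = plate neutral control median and 100% = total signal loss; the record names both 10 and 1 µM as test concentration; the first replicate is given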
Target sequence (P42568 whole entry, looked up): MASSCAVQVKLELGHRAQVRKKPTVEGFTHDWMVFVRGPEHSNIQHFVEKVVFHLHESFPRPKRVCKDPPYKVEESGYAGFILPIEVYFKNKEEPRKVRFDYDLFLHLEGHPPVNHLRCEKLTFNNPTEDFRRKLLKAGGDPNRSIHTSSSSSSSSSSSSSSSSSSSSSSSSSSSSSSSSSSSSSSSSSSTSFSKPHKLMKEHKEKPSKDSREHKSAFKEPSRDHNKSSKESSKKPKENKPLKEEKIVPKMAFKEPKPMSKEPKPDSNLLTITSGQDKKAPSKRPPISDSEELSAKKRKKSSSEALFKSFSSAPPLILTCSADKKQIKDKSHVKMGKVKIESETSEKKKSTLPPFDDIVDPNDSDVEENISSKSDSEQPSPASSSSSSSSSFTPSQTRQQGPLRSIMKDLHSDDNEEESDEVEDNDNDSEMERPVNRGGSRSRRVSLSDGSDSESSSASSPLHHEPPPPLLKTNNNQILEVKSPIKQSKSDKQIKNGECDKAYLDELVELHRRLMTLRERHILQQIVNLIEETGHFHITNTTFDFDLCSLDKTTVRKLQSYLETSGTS
E coli growth: inhibitors of Escherichia coli growth. OD600, 23 h; stronger effect = lower value. OD600 absorbance (no concentration beside the values). 0.21% of 330,000 active;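 active means OD600 absorbance below the run mean of sample wells minus 3.6 SD, in any replicate, cut at about 0.56 in these data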;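 further: stock transfer was 300 nL into about 60 µL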
FGF22 binding: FGF22 (human) thermal shift binding; 1.5% of 340,000 active; recombinant FGF22 thermal shift, SYPRO orange fluorescence; percent of sucrose octasulfate shift, DMSO zero; calls only at 9.99 µM; Q9HCT0; AID 651658;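 active means melting point raised past a set limit in the mean and every replicate; inconclusive means no clear call; three in four hits are not shown here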
Ecoli rRNA inh: inhibits bacterial ribosomal RNA function over humanized ribosomes. E. coli WT GFP vs humanized-ribosome RFP mutants, fluorescence, 24 h; stronger effect = lower value; DMSO median 0, no signal -100. GFP signal change (wild-type ribosome), % (concentration not given with the values). 1.6% of 350,000 active;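 active means significant combined selectivity score with lowered wild-type GFP, culture density cut under 30%, mutant RFP and density less affected; inactive means any of these conditions unmet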; further: one replicate is shown; some compounds called inactive have numbers as strong as hits
ALR H2O2 inh: blocks human ALR sulfhydryl oxidase activity; purified ALR, DTT oxidation, H2O2 HRP-luminol luminescence; inhibition, % (concentration not given with the values); 3.8% of 290,000 active; AID 485317;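 active means mean and each replicate at 75% or more; inconclusive means only one of the two met; inactive means neither met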;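 further: stock transfer was 7.5 nL into about 7.5 µL; 0% = neutral wells and 100% = wells with inactivated enzyme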
Ecoli rRNA inh OD600: second read-out of Ecoli rRNA inh, no call of its own (marks repeat the call); OD600 change, %; measured here: OD600 growth;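 optical density of the mix in the first replicate; 0 = DMSO median and -100 = no signal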
Ecoli rRNA inh RFP: also measured in Ecoli rRNA inh; calls as there; RFP signal change, %; measured here: RFP humanized mutant strains;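 first replicate; 0 = DMSO median and -100 = no signal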
Active calls of the source: *; i = inactive; ? = inconclusive; . = not tested or not shown; & = joins results of further samples.

Values run as follows: HNF4A DNA FP	Vif TR-FRET	MLL AF4-AF9 inh	E coli growth	FGF22 binding	Ecoli rRNA inh	Ecoli rRNA inh OD600	Ecoli rRNA inh RFP	ALR H2O2 inh
Cc1cccc(C)c1N1CCN(S(=O)(=O)c2ccccc2)CC1
  -2.6	10%	-2.1	0.66	i	15	10	-1.5	-5
Cc1nc(SCC(=O)Nc2cccc(S(=O)(=O)N3CCOCC3)c2)nc(C)c1C
  9.3	-7%	-3.3	0.68	i	-14	-38	-5.4	1
COc1ccc(NC(=O)CSc2nc3n[nH]c(C)c3c(=N)n2-c2ccc(Cl)c(C)c2)cc1OC
  -2.0	.	.	0.64	.	.	.	.	-5
O=C(NCc1cccnc1)C1CC(c2cccc(Br)c2)=NO1 (configuration not stated)
  -0.6	.	-0.6	0.65	i	6	1	-1.0	.
CCCCC(=O)Nc1cc([N+](=O)[O-])ccc1Cl
  -1.7	.	-0.5	0.65	i	9	9	-2.1	-2
CN(Cc1ccccc1)C(=O)CN1C(=O)NC2(CCCC2)C1=O
  -2.4	.	-0.9	0.67	i	9	12	-2.3	.
CCC1CCCCN1c1cc(C)nc2cc(-c3cccc(C)c3)nn12 (configuration not stated)
  1.6	-2%	.	0.72	.	.	.	.	0
COC(=O)CSc1nc2c(c(-c3ccc(O)cc3)c1C#N)CCCC2
  2.3	7%	-0.1	0.63	i	-43	-59	-9.7	-5
CCOC(=O)/C=C/[C@H]1CC2(CCO1)SCCCS2
  1.0	.	-0.8	.	i	0	6	-0.5	-10
CC1CN(c2cc3nccnc3cc2F)CC(C)O1 (configuration not stated)
  -4.3	1%	-5.4	0.7	i	6	3	0.4	-16
O=C(COC(=O)CNC(=O)c1ccccc1F)Nc1ccc(Cl)cn1
  1.4	.	?	0.71	i	7	6	-0.7	1
N=C(N)SCc1nc2ccccn2c1Br
  1.4	-4%	.	0.67	.	.	.	.	69
Cc1ccccc1C(=O)NNC(=O)C1CCCN(c2ncccn2)C1 (configuration not stated)
  -4.2	4%	.	0.67	.	.	.	.	-4
N#Cc1ccc(-c2csc(NC(=O)c3ccc(N4C(=O)CCC4=O)cc3)n2)cc1
  -1.6	20%	-0.4	0.71	i	9	2	1.3	-2
CCCNC(=O)Cn1cccc1C(=O)c1ccccc1
  1.0	-1%	.	0.69	.	.	.	.	-2
CCN(CC)CCNC(=O)c1[nH]c2ccc(OCc3ccccc3)cc2c1C
  1.5	-2%	25*	0.69	i	-18	-24	-3.9	-7
OC(c1ccccc1)(c1nc(-c2cccc3cccnc23)cs1)C(F)(F)F (configuration not stated)
  -0.4	.	3.6	.	i	-52	-54	-6.4	.
C[C@@H]1CN([C@@H](C)CO)C(=O)c2cccc(NC(=O)c3ccncc3)c2O[C@@H]1CN(C)Cc1ccc(C(=O)Nc2ccccc2N)cc1
  .	.	5.1	.	i	4	5	0.3	.
Cc1ccc(CNC(=O)CSc2nc3c(sc4ccccc43)c(=O)n2CCCN2CCCC2)cc1
  0.2	-27%	4.7	0.69	.	-15	-5	1.6	99*
O=C(O)c1ccc(COc2ccc3ccccc3c2)o1
  0.8	-9%	-4.8	0.65	i	-17*	1.8*	-3.0*	-12
CNc1ccc(C(O)(C(F)(F)F)C(F)(F)F)cc1C(O)(C(F)(F)F)C(F)(F)F
  1.5	4%&2%	.	0.67	.	.	.	.	5
Cc1ccc(S(=O)(=O)Nc2ccc3c(c2)C(=O)N([C@@H](C)CO)C[C@@H](C)[C@H](CN(C)Cc2ccc(Cl)c(Cl)c2)O3)cc1
  .	.	2.3	.	i	-1	2	-2.7	.
CC1(C)C(c2ccccc2)=[N+]([O-])C2(CCCCC2=O)N1O (configuration not stated)
  -1.2	0%	.	0.75	.	.	.	.	-6
Cc1nc(NC(=O)COC(=O)[C@@H](NC(=O)c2ccco2)C(C)C)c(Cl)cc1Cl
  1.5	.	-1.4	0.69	i	-3	-8	0.6	-1
CN(CCC1CCOCC1)C(=O)c1cc(COc2c(F)cccc2F)on1
  1.8	-1%	0.3	0.68	i	-11	-12	2.7	-10
CCCn1nnnc1NC(=O)CSc1ccc(Cl)cc1
  1.1	24%	-9.2	0.71	i	-42	-68	-23	-6
CCCNC(=O)N1CC2(CCN(S(=O)(=O)c3ccc(OC)cc3)CC2)c2c(n(C)c3cc(OC)ccc23)[C@@H]1CO
  .	.	1.1	.	i	-2	3	0.0	.
Cc1ccc(S(=O)(=O)N2CCC(C(=O)NCC(C)(C)N3CCOCC3)CC2)c(C)c1
  0.7	.	-0.7	0.7	i	3	-2	0.0	.
COc1ccc(-c2nn(-c3ccccc3F)cc2CNCCn2nc(C)cc2C)cc1
  -0.1	.	6.9	0.68	i	-19	-20	0.7	8
COc1ccc(N(CC(=O)Nc2cc(Cl)ccc2C)S(=O)(=O)c2c(C)n[nH]c2C)cc1
  -2.7	.	-0.5	0.73	i	6	18	-1.3	0
COc1cc2c(c(OC)c1OC)-c1ccc(SC)c(=O)cc1C(NC(=O)c1ccccc1)CC2 (configuration not stated)
  1.3	-3%	0.8	.	i	8	6	2.0	.
Cc1cc(NC2=CC(=O)C(=O)c3ccccc32)no1
  0.0	-7%	-4.5	.	i	-36	-54	-12	.
CC(=O)c1ccc(C(=O)NC2CC(C)(C)Cc3c2cnn3-c2ccccc2)cc1 (configuration not stated)
  0.7	-10%	-2.9	0.7	i	-2	6	3.9	18
COc1ccc(S(=O)(=O)Nc2ccc3c(c2)C(=O)N([C@H](C)CO)C[C@@H](C)[C@@H](CN(C)S(C)(=O)=O)OCCCC[C@H](C)O3)cc1
  .	.	-4.5	.	i	4	4	-0.9	.
COc1ccc(OC)c(NC(=O)c2cc3sccc3n2C)c1
  5.9	2%	.	0.67	.	.	.	.	-35
N#CC(C(=O)c1ccco1)c1ccccn1 (configuration not stated)
  -1.4	-2%	.	0.66	.	.	.	.	.
CCNS(=O)(=O)c1ccc(CCC(=O)O)cc1
  5.3	-1%	-0.4	0.69	i	17	17	-0.5	-1
COc1ccc(-c2c(C)nc(N)nc2-c2ccc(OC)cc2O)cc1
  -2.7	-3%	1.2	0.65	i	-8	-13	5.2	-17
Cc1cc(C)cc(NC(=S)NCc2ccc3[nH]c4c(c3c2)CCCC4)c1
  -0.4	4%	3.2	0.74	i	0	-9	1.3	-9
COc1ccc(OCC(=O)Nc2ccc3c(c2)nc(CCN2CCOCC2)n3C)cc1
  -3.2	7%	.	0.65	.	.	.	.	-11
Cc1noc(C)c1COc1cccc(C(=O)N2CCN(C/C=C/c3ccccc3)CC2)c1
  -0.8	2%	.	0.71	.	.	.	.	.
CC(NC(=O)C12CC3CC(CC(C3)C1)C2)c1ccc(F)cc1 (configuration not stated)
  0.5	.	-1.0	0.65	i	8	8	-2.6	-4
O=C(Nc1ccc(F)cc1)c1ccccc1F
  2.3	7%	-5.3	0.67	i	0	4	-7.1	4
Cc1cc(C(=O)NNc2cc(Cl)ccc2Cl)no1
  3.3	.	-4.0	0.7	i	-6	0	2.6	.
CCCCCNS(=O)(=O)c1cc2c3c(c1)CCC(=O)N3CCC2
  0.8	-4%	0.1	0.72	i	-2	-11	-1.6	-17
CCN1C(=O)C(CC(=O)N2CCN(C(c3ccccc3)c3ccccc3)CC2)N(CC)C1=O (configuration not stated)
  0.8	0%	.	0.71	.	.	.	.	1
CN1C(=O)c2cc(NC(=O)C3CC3)ccc2OC[C@@H]2O[C@H](CC(=O)NCCN3CCCC3)CC[C@H]21
  .	.	-1.1	.	i	3	9	-1.8	.
OC(c1ccccc1)(c1ccccc1)c1ccn[nH]1
  3.2	.	0.1	0.7	i	4	2	-3.8	.
Nn1c(SCC(=O)Nc2ccc3c(c2)OCO3)nnc1C(F)(F)F
  -4.9	2%	3.1	0.7	i	7	9	0.1	-3
CCOc1cc(N2CCOCC2)c(OCC)cc1NC(=O)COC(=O)c1cccc2ccccc12
  -1.2	.	2.2	0.69	i	-6	-8	1.8	-43
CN(C)c1cccc2c(S(=O)(=O)NC(=O)[C@H]3O[C@@H](n4cnc5c(N)ncnc54)[C@H](O)[C@@H]3O)cccc12
  -0.1	.	-0.5	.	i	-19	-21	-2.8	.
CC(=O)c1c(C(C)=O)c(C)n(-c2ccc(N)c(C)c2)c1C
  -0.9	3%	.	0.7	.	.	.	.	.
N#Cc1ccc(-c2nc3ccc(Cl)cn3c2Cc2ccccc2C(F)(F)F)cc1
  2.3	.	1.9	.	i	4	-8	4.9	.
COc1cc(OC)cc(C(=O)NCCCN2CCOCC2)c1
  2.3	28%	.	0.66	.	.	.	.	1
COc1ccc(C(=O)NC2CCCc3ccccc32)cc1[N+](=O)[O-] (configuration not stated)
  0.2	.	7.4	0.67	i	7	10	3.8	-9
CCCN(C)C[C@@H]1Oc2cc(C#Cc3ccc(F)cc3)ccc2S(=O)(=O)N([C@H](C)CO)C[C@@H]1C
  .	.	2.5	.	i	-1	-3	1.1	.
C#CCOCCOCCOCCNc1nc(N2CCOCC2)nc(N2CCN(C(=O)[C@H](C)n3cc(CCC(=O)O)nn3)CC2)n1
  -0.4	.	-2.4	.	i	9	10	0.1	.
CSc1ccc(/C=C(/NC(=O)c2ccccc2)C(=O)NCCN2CCOCC2)cc1
  -1.0	.	-0.6	0.71	i	16	18	3.4	2
CCC1CCCCN1S(=O)(=O)c1ccc(S(=O)(=O)N(Cc2ccccn2)CC2CCCO2)cc1 (configuration not stated)
  -1.4	6%	.	0.67	.	.	.	.	-4
C[C@H](CO)N1C[C@H](C)[C@@H](CN(C)Cc2ccc(Oc3ccccc3)cc2)Oc2c(NS(=O)(=O)c3cccs3)cccc2C1=O
  .	.	7.6	.	i	0	7	2.6	.

Molecules above that contain a nitro group on carbon:
Values run as follows: HNF4A DNA FP	Vif TR-FRET	MLL AF4-AF9 inh	E coli growth	FGF22 binding	Ecoli rRNA inh	Ecoli rRNA inh OD600	Ecoli rRNA inh RFP	ALR H2O2 inh
CCCCC(=O)Nc1cc([N+](=O)[O-])ccc1Cl
  -1.7	.	-0.5	0.65	i	9	9	-2.1	-2
COc1ccc(C(=O)NC2CCCc3ccccc32)cc1[N+](=O)[O-] (configuration not stated)
  0.2	.	7.4	0.67	i	7	10	3.8	-9

Remaining list, next part.
Values run as follows: HNF4A DNA FP	Vif TR-FRET	MLL AF4-AF9 inh	E coli growth	FGF22 binding	Ecoli rRNA inh	Ecoli rRNA inh OD600	Ecoli rRNA inh RFP	ALR H2O2 inh
COc1ccc(CN2C(=O)c3cccnc3C2=O)cc1S(=O)(=O)NC1CCCCC1C (configuration not stated)
  2.4	.	0.1	0.72	i	18	17	4.0	-1
CC(NC(=O)COC(=O)C1(C)CC1(Cl)Cl)c1ccccc1 (configuration not stated)
  -4.5	19%	-3.0	0.69	i	0	-9	0.9	.
COC(=O)C1CCN(CC(=O)NC(=O)Nc2ccccc2F)CC1
  0.1	0%	0.6	0.65	i	.	.	.	-1
CCCOc1ccc(C(=O)C(CN2CCCC2)c2ccccc2)cc1 (configuration not stated)
  1.3	2%	-5.2	0.62	i	-27	-29	-8.1	96*
O=C(c1ccc(NC2=NC3CS(=O)(=O)CC3S2)cc1)N(CCO)Cc1ccccc1 (configuration not stated)
  -1.9	.	2.2	0.67	i	0	9	-2.7	-5
Cc1nn(Cc2ccccc2)c2c1C(c1ccco1)C(C#N)=C(N)O2 (configuration not stated)
  -0.3	17%	.	0.77	.	.	.	.	29

Screening results (PubChem BioAssay)

A portion of the library, so the mix of outcomes need not match the whole.
